HCMV UL50-53 inh: inhibitors of HCMV UL50-UL53 nuclear egress complex interaction; HTRF UL50-UL53 interaction, normalized percent inhibition; inhibition, % (no concentration beside the values); 190,000 compounds, 0.15% hits;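 active means both replicates at 50% or more, plus weaker picks with an unusually low signal ratio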;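 further: stock transfer was 100 nL into about 20 µL; 0% = negative control wells and 100% = wells with untagged competitor protein; inactives centre near -12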
Sa growth inh: inhibitors of Staphylococcus aureus growth at 42 °C. 170,000 compounds, 0.53% hits. relative growth, % (no concentration beside the values). S. aureus RN4220 growth, OD600, 20 h; active compounds read low;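 active means growth at 42 °C up to 50% and 20 or more points under that at 30 °C, or under 10% at both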;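 further: 300 nL library stock went into each well; scaled to the means of positive and negative controls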
GIV-Gai inh: blocks GIV peptide binding to rat Galpha-i3. P08753. Galpha-i3/FITC-GIV peptide fluorescence polarization, 90 min; active compounds read low; scaled: aluminum fluoride 0%, vehicle 100%. percent of control (FP), % (concentration not given with the values). 210,000 compounds, 0.42% hits;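 active means replicate mean at 85% of control or lower, very high polarization wells dropped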;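 further: wells of about 15 µL received 100 nL stock; the first replicate is given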
Target sequence (P08753 whole entry, looked up): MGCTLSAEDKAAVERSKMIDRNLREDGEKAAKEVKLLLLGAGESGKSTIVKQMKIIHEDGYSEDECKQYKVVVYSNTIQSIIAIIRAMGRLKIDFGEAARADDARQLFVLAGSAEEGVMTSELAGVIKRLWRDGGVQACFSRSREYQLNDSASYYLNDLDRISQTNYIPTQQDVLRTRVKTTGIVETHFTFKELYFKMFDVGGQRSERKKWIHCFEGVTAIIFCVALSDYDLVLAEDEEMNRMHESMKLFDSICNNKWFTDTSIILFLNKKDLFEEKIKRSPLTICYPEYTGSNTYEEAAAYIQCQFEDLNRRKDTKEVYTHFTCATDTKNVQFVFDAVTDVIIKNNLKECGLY
Sa growth inh second temp: second read-out of Sa growth inh, no call of its own (marks repeat the call); relative growth, %; measured here: growth at 30 °C;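 optical density after 20 h as mean of two plates; 100% = untreated growth and lower means inhibition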
* = called active by the depositor; / = no result given; & = joins results of further samples.

SMILES	HCMV UL50-53 inh	Sa growth inh	Sa growth inh second temp	GIV-Gai inh
CC1CN(S(=O)(=O)c2ccc(NC(=O)CN3C(=O)COc4ccccc43)cc2)CC(C)O1 (stereo not drawn)	-14	82	97	/
COc1ccc(C2CC(c3c(O)cc(C)oc3=O)=NCCS2)c(OC)c1 (stereo not drawn)	-2&-2	116	78	106
CNC(=O)c1cc2cc(OC)ccc2oc1=N	-152	89	86	102
COc1ccc(-c2nc3sc(CCNC(=O)Cc4ccc(Cl)cc4)c(C)n3n2)cc1	/	93	91	98
COc1ccc(-n2nc(C(F)(F)F)cc2-c2cccs2)cc1	-37	98	96	100
Cc1ccc(-n2nc(C)c3nc(CCC(=O)NC4CCCC4)c(=O)n(C)c32)cc1	-60	/	/	107
CS(=O)(=O)Nc1cccc2nsnc12	-63&-86	86	45	98&101
CC(C)n1cnc(S(=O)(=O)N2CCC(C(=O)N3CCCCC3)CC2)c1	-20	/	/	104
COc1ccccc1Nc1ncnc2c1nc1n2CCCC1	11	122	96	107&102
CC1=Nc2ccc(Br)cc2C(c2ccccc2)N1CC(=O)O (stereo not drawn)	-17	93	91	106
O=C(NC1CCCCCC1)c1cc2c(s1)CS(=O)(=O)C2	-3	88	84	101
O=S(=O)(Nc1cccc(F)c1)c1ccccc1	3	89	124	107
Cc1ccc2c(c1)c1c(n2CC(O)CNc2ccccc2)C(=O)CCC1 (stereo not drawn)	4&-31	95	100	105&104
Cc1ccsc1C(=O)N1CC(C)OC(C)C1 (stereo not drawn)	-19	87	93	/
CCOc1ccccc1NC(=O)c1nc(SC(C)C)ncc1Cl	9	94	80	99
CC(C)Cc1ccc(C(C)C(=O)NCCc2c[nH]c3ccccc23)cc1 (stereo not drawn)	-16	81	97	/
Cn1cccc1-c1cc2n(n1)CCC(=O)N2CC(=O)NCc1ccc(Cl)cc1	10	/	/	108
COCC(C)NC(=O)c1ccc(NC(C)=O)cc1 (stereo not drawn)	1	105	97	/
COc1cccc(NC(=O)C2CCN(c3ccccc3)C2=O)c1 (stereo not drawn)	-11	/	/	103
O=C(O)CN1C(=O)CC(Cc2ccc(Cl)cc2)C1=O (stereo not drawn)	/	107	83	102
C=C(C)Cn1c(SCC(N)=O)nc2sc3c(c2c1=O)CC(C)(C)OC3	-19	/	/	100
N#Cc1oc2ccccc2c1NC(=O)COC(=O)CSc1ccc2ccccc2c1	-5	99	93	/
COc1ccc(Cn2ccc3nc(C)c(C(=O)Nc4ccc(C)c(F)c4)cc3c2=O)cc1	/	97	73	100
O=C(CSc1nnc(C2COc3ccccc3O2)n1-c1ccccc1)c1ccc(F)cc1 (stereo not drawn)	-29	/	/	100
FC(F)(F)c1n[nH]c(=S)n1/N=C/c1ccc(Cl)cc1	-13	10	-1	/
CN(CC(=O)Nc1ccc(N2CCOCC2)cc1)CC(=O)Nc1ccccc1C(=O)c1ccccc1	16	85	96	/
Cc1cc(C)nc(NS(=O)(=O)c2ccc(Nc3nc(-c4c(C)nc5ccccn45)cs3)cc2)n1	-21	/	/	105
CNC(=O)c1sc(CN2C(=O)c3ccccc3S2(=O)=O)nc1C	-12	84	92	/
CCOc1cc(Cl)c(Cl)c2cc(C(=O)NC)c(=O)oc12	-26	103	90	100
O=C(/C=C/c1ccccc1)/C=C/c1ccccc1	/	59	47	80*
CCCS(=O)(=O)N1CCC(C(=O)NCCOC)CC1	/	125	92	99
c1ccc2cc(OCCN3CCCCC3)ccc2c1	1	97	103	106
Cn1c2ccccc2c2cnn(CC(=O)NCc3ccccc3)c(=O)c21	-1	88	86	101
COCCCn1c(SCc2cccc(Cl)c2)nc2c(sc3ccccc32)c1=O	/	99	106	110
CCOC(=O)c1nn(-c2ccccc2)c(=N)c(C#N)c1C	38	103	74	244
COC(=O)/C(=C\c1c[nH]c2ccccc12)NC(C)=O	-47	101	88	101
COc1ccc(NCc2nc(-c3ccccc3)no2)cc1OC	/	86	73	102
O=C1CCC2(CC1)OCCO2	1	104	97	110
COc1ccccc1NC(=O)c1c(C)cc(C)nc1SCC(=O)Nc1cccc(C)c1	-3	105	79	103
CCOC(=O)Nc1c(C)noc1C	-19	103	85	99
Cc1ccc(C(=O)c2cccs2)s1	-33	105	87	/
CC(=O)NC(=O)/C(C#N)=C/Nc1ccc(F)c(Cl)c1	10	100	85	111
CC1=C(CCN2CCN(C)CC2)C(C)(C)CCC1	-10	87	83	105
COCN(C#N)c1nc(N(C)C)nc(N(C)C)n1	/	86	82	103
CN(C)C(=O)c1ccc2c(c1)N(CC(=O)NCC1CCCO1)C(=O)CO2 (stereo not drawn)	-22	/	/	98
Cc1nn2c(C)c(C(=O)NCCc3ccccc3)cnc2c1-c1ccccc1	/	100	93	99
COc1cccc(-c2nc(S(=O)(=O)c3ccccc3)c(N3CCC(C)CC3)o2)c1	-19&8	98	93	107&109
Cc1ccc(-n2c(SCc3ccccc3)nc3c([nH]c4ccccc43)c2=O)cc1	/	105	91	97
CN1/C(=C\C(=O)COC(=O)C2CC3CCCC(C2)C3=O)C(C)(C)c2ccccc21 (stereo not drawn)	6	105	91	/
CCCc1c(C)c2ccccc2[nH]c1=O	-42	94	102	106
CC1(C)Cc2nc3sc4c(=O)n(CCCc5ccccc5)cnc4c3cc2CO1	-14	/	/	98
Cc1ccc(C)c(CN2C(=O)c3ccccc3S(=O)c3ccc(C(=O)N4CCOCC4)cc32)c1 (stereo not drawn)	-6	97	88	98
CC(CCc1ccccc1)NC(=O)Cn1nc(Cc2ccncc2)c2ccccc2c1=O (stereo not drawn)	2	102	91	99
Cc1ccc(C(=O)N2CCc3cc(CNS(=O)(=O)c4ccc(Cl)s4)ccc32)cc1	/	99	94	106
N#CN=C(c1ccccc1)c1ccccc1	-11	94	83	/
Cc1ccc(C)c(NC(=O)CN(C)S(=O)(=O)c2ccc3c(c2)CCC(=O)N3)c1	-34	90	85	101
CC(C)NC(=O)Nc1ccc(-c2noc(-c3ccc4c(c3)OCO4)n2)cc1	-3	/	/	108
CCOC(=O)N1CCN(C(=O)CCCN2C(=O)/C(=C\c3cccs3)SC2=S)CC1	/	110	78	129
Cc1onc(-c2ccccc2)c1C(=O)Nc1ccc(S(=O)(=O)Nc2ncccn2)cc1	-6	112	82	96
CCCCOc1ccc(CNC(=O)Cc2ccc(NC(=O)N3CCSc4ncccc43)cc2)cc1	/	114	102	108

Continued.
SMILES	HCMV UL50-53 inh	Sa growth inh	Sa growth inh second temp	GIV-Gai inh
O=C(Cc1cccs1)Nc1cccc(-c2nnc(-c3ccco3)o2)c1	-14	105	59	/
Cc1nc2ccccc2n(CC(=O)NCCC2=CCCCC2)c1=O	-4	/	/	110
CN(CCO)CC(O)c1ccccc1 (stereo not drawn)	8	82	93	/
O=C(O)CCN1C(=O)c2ccccc2S1(=O)=O	-20&-1	/	/	104&107
COC(=O)c1sccc1NC(=O)c1c(C)nn(-c2ccccc2)c1-n1cccc1	9	109	89	103
Cc1ccc(NC(=O)CC2(C(F)(F)F)OCCO2)cc1Cl	-10	123	86	/
O=C(CN1C(=O)c2ccccc2C1=O)N1CCN(Cc2ccccc2)CC1	-21	85	96	/
CCOc1ccccc1NC(=O)C1c2ccccc2Oc2ccccc21	-13	/	/	99
COc1cccc(C(=O)NCc2ccccc2F)c1	5	123	99	/
Cn1nc(C(=O)OCC(=O)C(C)(C)C)c2ccccc2c1=O	-33	100	85	/
c1cnc2nc(SCc3ccc(CSc4nc5ncccc5[nH]4)cc3)[nH]c2c1	4	98	96	109
N#Cc1ccc(NS(=O)(=O)Cc2ccccc2)cc1	-12	93	80	101

In the list so far, three contain a CF3 group:
SMILES	HCMV UL50-53 inh	Sa growth inh	Sa growth inh second temp	GIV-Gai inh
COc1ccc(-n2nc(C(F)(F)F)cc2-c2cccs2)cc1	-37	98	96	100
FC(F)(F)c1n[nH]c(=S)n1/N=C/c1ccc(Cl)cc1	-13	10	-1	/
Cc1ccc(NC(=O)CC2(C(F)(F)F)OCCO2)cc1Cl	-10	123	86	/

Back to the main list, starting 2 compounds before the break.
SMILES	HCMV UL50-53 inh	Sa growth inh	Sa growth inh second temp	GIV-Gai inh
c1cnc2nc(SCc3ccc(CSc4nc5ncccc5[nH]4)cc3)[nH]c2c1	4	98	96	109
N#Cc1ccc(NS(=O)(=O)Cc2ccccc2)cc1	-12	93	80	101
Cc1c(N2C(=O)CSC2c2ccc(F)cc2)c(=O)n(-c2ccccc2)n1C (stereo not drawn)	-32	80	84	/
CC(=O)Nc1ccc(OC(=O)c2conc2C(C)(C)C)cc1	7	101	113	106
Cn1c(=NC(=O)c2cccc(C(F)(F)F)c2)sc2c3ccccc3ccc21	/	86	101	103
CCCc1nncn1NC(=O)OCC	7	89	96	/
O=c1oc(-c2cccc(Cl)c2)nc2sc3c(c12)CCCC3	-17	/	/	108
[O-][n+]1onc2c1CCc1c-2nc(-c2ccco2)n1O	-26	92	94	/
CC(Oc1ccc(-c2ccccc2)cc1)C(=O)N1CCN(S(C)(=O)=O)CC1 (stereo not drawn)	-2	115	105	106
Cn1c(=O)c2c(ncn2CC(=O)NN)n(C)c1=O	16	107	100	105
O=C1C2CC3CC1CC(C(=O)O)(C3)C2	/	108	96	95
O=C(Nc1c(C(=O)N2CCN(c3ncccn3)CC2)oc2ccccc12)c1cc(-c2ccc(F)cc2)on1	-11	81	79	108
Cn1c2ccccc2c2cc(C(=O)O)ccc21	8	116	96	104
c1ccc(-c2nnc(-c3ccco3)o2)cc1	15	77	94	/

An excerpt from above in order of molar mass, rising:
SMILES	HCMV UL50-53 inh	Sa growth inh	Sa growth inh second temp	GIV-Gai inh
CCOC(=O)Nc1c(C)noc1C	-19	103	85	99
CC1=C(CCN2CCN(C)CC2)C(C)(C)CCC1	-10	87	83	105
COc1ccc(-n2nc(C(F)(F)F)cc2-c2cccs2)cc1	-37	98	96	100
CCOc1ccccc1NC(=O)C1c2ccccc2Oc2ccccc21	-13	/	/	99
N#Cc1oc2ccccc2c1NC(=O)COC(=O)CSc1ccc2ccccc2c1	-5	99	93	/

More results follow:
SMILES	HCMV UL50-53 inh	Sa growth inh	Sa growth inh second temp	GIV-Gai inh
CCOC(=O)c1ccc(N=C(N)SCc2ccccc2)cc1	6	98	92	102
N/C(CC(=O)NCc1ccccc1)=N\O	-12	94	90	/
Cc1cc(C)cc(NC(=O)Nc2cccs2)c1	-26	95	85	103
COc1ccc2c(c1)C=C(C(=O)NCc1cc(Br)ccc1OC)CO2	/	82	89	101
CCCC1CC2(O)CC(C#N)(C(=O)N2)C1(C#N)C#N (stereo not drawn)	8	74	98	110
OC(CNCc1ccc(Cl)c(Cl)c1)Cn1ccc2ccccc21 (stereo not drawn)	-11	109	43	97
CC(C)(C)c1nocc1C(=O)N1CCOCC1	2	97	96	99
COc1ccc(Cl)cc1-c1nc(SCC(=O)NCC(F)(F)F)n[nH]1	5	103	98	/
Cc1cc(C(=O)COC(=O)c2cnccn2)c(C)n1-c1ccc(OC(F)F)cc1	-36	71	88	/
COc1ccc(Cn2c(C(=O)O)c(CNCc3ccco3)c3ccc(OC)cc32)cc1	/	97	93	104
O=C(NCCn1c(-c2ccncc2)nc2cccnc21)Nc1ccc(Br)cc1F	8	/	/	98
Cc1ccc2oc(C(=O)Nc3sc4c(c3C(=O)NCc3ccco3)CCC4)cc(=O)c2c1	-27	99	82	109
CCOC(=O)N1CCC(NC(=O)c2cnn(-c3cccc(Cl)c3C)c2C2CCN(C(=O)OC(C)(C)C)CC2)CC1	/	98	96	107
O=C(c1ccccc1)N1CCN(C2=NS(=O)(=O)c3ccccc32)CC1	/	97	93	106
Nc1c(C(=O)c2ccccc2)sc2[nH]c(=O)c(C(=O)O)cc12	-34	95	85	103
Cc1cc(C)c2c(CC(=O)Nc3ccc(S(N)(=O)=O)cc3)coc2c1	-31	/	/	102
COc1ccc(NC(=O)c2ccc3nnc(SCC(=O)Nc4ccc5c(c4)OCO5)n3c2)cc1	-34	/	/	105
CC1CCCC(C)N1C(=O)CSc1nc2cc(Cl)ccc2o1 (stereo not drawn)	-13	73	91	/
COc1ccc(-c2nnc3sc(-c4cc(CC(C)C)[nH]n4)nn23)cc1OC	1	/	/	111
N#Cc1cnc(N2CCc3ccccc32)nc1N	-84	75	72	101
O=C(O)CSCC(=O)Nc1ccccc1Sc1ncnc2cc(-c3ccccc3)sc12	-1	95	95	103
CN(Cc1ccccc1)C(=O)CN1CCN(C(c2ccccc2)c2ccccc2)CC1	8	118	90	/
Cn1cnnc1SC1c2cccc3cccc(c23)C1NS(=O)(=O)c1ccccc1 (stereo not drawn)	-26	100	81	105
Cc1cccc(NC(=O)CSc2nc(-c3ccccc3)cc(=O)[nH]2)c1C	/	98	77	97
Nc1cc(N)nc(SCCC(=O)O)n1	/	117	86	100
CNC(=O)c1ccccc1-[s+]1c2ccccc2c(=O)n1C (stereo not drawn)	-9&9	103&104	92&108	107&110
Cc1cc(OC(C)C(=O)Nn2cnnc2)ccc1Cl (stereo not drawn)	-10	102	102	103
O=S(=O)(Nc1cccc(-c2ccc(N3CCCCCC3)nn2)c1)c1cccc(F)c1	/	135	98	102

Bioassay records (PubChem BioAssay)
